# MARV entry inh: qHTS for inhibitors of binding or entry into cells for Marburg Virus; Marburg virus pseudotyped entry inhibition, cell reporter; control for the full effect not named in the record; about a third of the inactives were read at about 46 µM; Potency, µM (doses to about 37.8 µM), inactives show top-dose activity change, negative = inhibition, usual class: inhibitors; hit rate 1.8% among 300,000; active = well fitted inhibition curve with a large enough effect; inconclusive = small, poorly fitted or top-dose-only effect, or effect the other way; inactive = flat fitted curve, though single readings scatter; tested in HEK293 cells; about a fifth of its hits are not listed in these tables; note: % is set by controls: 0 for no effect and ±100 for the full control effect; luciferase read-out
# SARS PLpro yeast: qHTS of Yeast-based Assay for SARS-CoV PLP; S. cerevisiae expressing SARS-CoV PLpro, growth rescue; control for the full effect not named in the record; Potency, µM (doses to about 32.9 µM), for inactives: at the top dose activity, positive = growth rescue; hit rate 0.19% among 330,000; AID 485353, 2010; note: 0% is about no effect; nearly all actives have a fitted effect of over 55% in size; growth read by luminescence after 48 h
# RE007 growth inh: qHTS Assay for Inhibitors of the HIV-1 protein Vpr. hit rate 0.21% among 360,000. S. pombe RE007 Vpr strain, BacTiter-Glo ATP luminescence, 24 h; control for the full effect not named in the record. Potency, µM (top dose mostly 92.2 µM), for inactives: top-dose activity change, negative = less growth; active = well fitted falling curve with a large enough effect; inconclusive = small, poorly fitted or top-dose-only effect; inactive = no such curve, though single readings can be large or run the other way;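 note: % is set by controls: 0 for no effect and ±100 for the full control effect; nearly all actives have a fitted effect of over 50% in size; the assay follows cell death caused by Vpr and the record does not say whether a fall means rescue or toxicity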
#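 Fission yeast strain RE007, carrying one chromosomally integrated HIV-1 vpr copy, was seeded at OD 0.01 in PMG+AL medium with 23 nL pinned compound. After 24 h at 30 °C and 99% humidity, viability was read by BacTiter-Glo luminescence.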
# LASV entry inh: qHTS for Inhibitors of binding or entry into cells for Lassa Virus. Lassa virus pseudotype entry inhibition, cell reporter; control for the full effect not named in the record. Potency, µM (doses to about 37.9 µM), for the others: top-dose activity change, negative = inhibition, actives largely listed as inhibitors. hit rate 1.2% among 300,000; active means well fitted inhibition curve with a large enough effect; inconclusive means small, poorly fitted or top-dose-only effect, or effect the other way; inactive means flat fitted curve, though single readings scatter; tested in HEK293 cells; note: % is set by controls: 0 for no effect and ±100 for the full control effect; nearly all actives have a fitted effect of over 50% in size; luciferase read-out
# StopGo reporter: High Throughput Screening for Foot and Mouth Disease Virus Antivirals; Potency, µM (doses to about 57.9 µM), for the others: at the top dose signal change, negative = less light; hit rate 1.2% among 410,000; human cells with a luciferase reporter of 2A StopGo recoding; control for the full effect not named in the record; AID 1159524, 2015; active = well fitted falling curve with a large enough effect; inconclusive = small, poorly fitted or top-dose-only effect; inactive = no such curve, though single readings can be large or run the other way; tested in HEK293T cells; note: % is set by controls: 0 for no effect and ±100 for the full control effect; nearly all actives have a fitted effect of over 45% in size; luciferase light after 4 h
# NS1 function inh: qHTS Assay for Inhibitors of Influenza NS1 Protein Function. AID 2326, 2010. hit rate 0.4% among 270,000. S. cerevisiae slowed by influenza A NS1, growth recovery by OD600. Potency, µM (series often up to 46.1 µM), inactives show at the highest dose activity, positive = more growth; note: actives are rising curves; nearly all actives have a fitted effect of over 50% in size
#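 In this qHTS, NS1 from influenza A is expressed in budding yeast, where it slows growth. Cells are switched from glucose to 2% galactose medium (pH 6.0, -URA), treated with compound, and growth recovery is read at OD600.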
# Cruzain noTriton: qHTS Assay for Promiscuous and Specific Inhibitors of Cruzain (without detergent); Cruzipain (Trypanosoma cruzi), P25779; purified cruzain, Z-FR-AMC fluorescence, no detergent; Potency, µM, for the others: max response, negative = inhibition, usual class: inhibitors; hit rate 2.3% among 200,000; AID 1476, 2009; active = well fitted curve in the direction sought with a large enough effect; inconclusive = small, poorly fitted or top-dose-only effect, or another doubt; inactive = no such curve, though single readings can be large; an effect the other way counts as inactive or inconclusive;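 note: plate controls were enzyme without inhibitor for no effect and buffer without enzyme for full effect; nearly all actives have a fitted effect of over 40% in size; top concentration of the series not given in the record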
# Target sequence (P25779 123-467 limits assumed): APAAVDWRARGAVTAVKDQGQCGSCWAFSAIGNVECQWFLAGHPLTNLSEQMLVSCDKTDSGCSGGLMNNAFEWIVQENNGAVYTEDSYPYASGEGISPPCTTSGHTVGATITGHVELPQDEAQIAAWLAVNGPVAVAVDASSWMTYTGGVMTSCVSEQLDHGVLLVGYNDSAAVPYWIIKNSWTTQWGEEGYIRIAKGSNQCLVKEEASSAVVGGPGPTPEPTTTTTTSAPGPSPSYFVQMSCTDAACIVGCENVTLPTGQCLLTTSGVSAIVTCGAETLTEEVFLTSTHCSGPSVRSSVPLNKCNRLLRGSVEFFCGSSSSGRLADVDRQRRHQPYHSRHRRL
#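 Purified cruzain at 1.5 nM, pre-incubated 15 min with compound at room temperature in 100 mM sodium acetate pH 5.5, 5 mM DTT, 0.00005% Triton X-100. Reaction started with 2 uM Z-FR-AMC; AMC fluorescence increase over 60 s gives rate.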
# Cruzain inh Det: qHTS Assay for Promiscuous and Specific Inhibitors of Cruzain (with detergent) | Cruzipain (Trypanosoma cruzi), P25779 | purified cruzain, Z-FR-AMC fluorescence, 0.01% Triton | Potency, µM, inactives show max response, negative = inhibition, hits mostly inhibitors | hit rate 0.43% among 200,000 | AID 1478, 2009; active = well fitted curve in the direction sought with a large enough effect; inconclusive = small, poorly fitted or top-dose-only effect, or another doubt; inactive = no such curve, though single readings can be large; an effect the other way counts as inactive or inconclusive;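 note: plate controls were neutral wells for no effect and buffer without enzyme for full effect; nearly all actives have a fitted effect of over 40% in size; top concentration of the series not given in the record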
#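 Detergent-containing arm of a paired screen for aggregation-based inhibition: 0.01% Triton X-100 present. Cruzain at 1.5 nM cleaved 2 uM Z-FR-AMC at pH 5.5 with 5 mM DTT; AMC fluorescence gain over 60 s measured activity.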
# * = called active by the depositor; ? = inconclusive; . = not tested or not shown; & = joins results of further samples; [ ] = dose if it differs, or a comment. Unless noted, calls come from the whole dose curve; as a rule, active means well fitted rising curve with a large enough effect; inconclusive means small, poorly fitted or top-dose-only effect; inactive means no such curve, though single readings can be large or run the other way. Potency is the fitted concentration of half-maximal effect.
item	structure	MARV entry inh	SARS PLpro yeast	RE007 growth inh	LASV entry inh	StopGo reporter	NS1 function inh	Cruzain noTriton	Cruzain inh Det
1	CCOc1ccc(S(=O)(=O)N(CC)CC)cc1NC(=O)c1ccc(N2CCCC2=O)cc1	3%	9%	8%	?	10%	0%	.	.
2	COC(=O)CCCNC(=O)OCc1ccc([N+](=O)[O-])cc1	-1%	5%	1%	19%	-9%	-1%	-6%	1.5%
3	CCC1CCC(NC(=O)Nc2cccc(OC)c2)CC1 (stereo not given)	?	-3%	2%	-1%[46.1 µM]	15%	-5%	.	.
4	Cc1ccc(C(=O)C(OC(=O)CNC(=O)c2ccc(Cl)cc2)c2ccccc2)cc1 (stereo not given)	2%	?	-12%[3.69 µM]	1%	-7%	?	10µM*	6.3µM*
5	O=C(O)Cc1ccc(C(=O)c2ccccc2F)s1	18%	5%	3%	-13%	33%[activator]	-1%	0%	-1.0%
6	Cn1c(Cc2ccccc2)nnc1SCC(=O)NC1CCCCC1	17%	4%	1%	-14%	44%[activator]	11%	-1%	3.9%
7	Cn1c(=O)c2c(ncn2CC(=O)OCC(=O)Nc2ccccc2Cl)n(C)c1=O	4%	25%	-4%	21%	0%	5%	-3%	-2.4%
8	CCOC(=O)c1csc(NC(C)=O)n1	?	3%	6%	-1%[46.1 µM]	9%	.	.	.
9	CCC(CO)NCc1ccc(OCC(O)c2ccccc2)c(OC)c1 (stereo not given)	.	5%	24%	.	-8%	?	.	.
10	CCc1nnc(SCC(=O)NC2CC2)n1CC	36%[46.1 µM]	-5%	13%	3%[46.1 µM]	-8%	16%	.	.
11	CCCCC(=O)NC(c1ccccc1)c1ccc2cccnc2c1O (stereo not given)	?	4.5µM*	?	?	-4%	2%	.	.
12	Cc1ccc(-c2noc(CN(C)C(=O)c3ccoc3C)n2)cc1	-10%[46.1 µM]	-8%	2%	11%[46.1 µM]	27%	-17%	.	.
13	COc1ccc(Cl)cc1NC(=O)N1CCN(C2CCCCC2)CC1	?	2%	2%	9%	?	-6%	-9%	-0.7%
14	Cc1ccc(N(C(C)C(=O)Nc2cc(Cl)ccc2Oc2ccccc2)S(C)(=O)=O)cc1 (stereo not given)	?	3%	-2%	?	.	25%	-14%	-1.6%
15	CS(=O)(=O)c1ccc(Cl)c(NC(=O)CSC(=S)N2CCCC2)c1	?	.	28%	?	0%	.	.	.
16	O=C1OCCN1C(=O)[C@H]1[C@H](c2ccc([N+](=O)[O-])cc2)C(c2cccc(Cl)c2)=NN1c1ccc(Br)cc1	.	5%	2%	.	-18%	.	3.5µM*	0.6%
17	O=C(CCC(=O)N1CCOCC1)c1ccc(F)cc1	-14%[46.1 µM]	-1%	5%	-6%	38%[activator]	.	.	.
18	O=C(NCCCCc1ccccc1)C1CC(c2ccccc2[N+](=O)[O-])=NO1 (stereo not given)	.	-3%	-19%	.	-7%	-13%	-2%	0.7%
19	CCN(CC(=O)NCc1ccc(Cl)cc1)C(=O)CSc1ccc(Br)cc1	?	-11%	-13%	-25%	-7%	-110%	.	.
20	CC(=O)N1c2c(cc(Br)cc2S(=O)(=O)NCc2ccccc2Cl)CC1C (stereo not given)	-11%[46.1 µM]	.	.	6%[46.1 µM]	55%[activator]	.	-3%	-2.7%
21	COc1ccc(CNC(=O)CN(c2ccccc2)S(=O)(=O)N(C)C)cc1	1%&11%[46.1 µM]	1%	-2%	?	7%&-18%	2%	15%	4.3%
22	Cc1cc(C(=O)COC(=O)CN(C)S(=O)(=O)c2ccc(Cl)cc2)c(C)n1Cc1cccs1	-13%&-13%	-9%	5%	-4%	-6%	-12%	-9%	-5.1%
23	COc1ccccc1NC(=O)CN1CCC(C(=O)c2ccc(F)cc2)CC1	-3%	0%	1%	2%	-2%	-28%	-5%	5.8%
24	O=C(CSC1=Nc2ccccc2C2=NC(CCC(=O)NC3CCCCC3)C(=O)N12)Nc1cccc(Cl)c1 (stereo not given)	11%[46.1 µM]	.	.	8%[46.1 µM]	-15%	.	-9%	6.6%
25	CCc1ccc(NC(=O)Cn2cnc3nc4c(cc3c2=O)CCCC4)cc1	.	.	.	?	-5%	.	-1%	0.8%
26	COc1ccc(OCCCN2CCCCCC2)cc1	?	2%	-5%	5%	-3%	8%	-6%	2.4%
27	CC(NC(=O)c1ccncc1)c1ccccc1 (stereo not given)	.	-3%	1%	.	-4%	2%	.	.
28	CN1CCN(c2ncc3c(n2)CCN(Cc2ccccc2Cl)C3)CC1	.	.	.	-6%[46.1 µM]	-4%	.	4%	-1.0%
29	Cc1cc(=O)oc2c3c(cc(OCC(=O)Nc4cccnc4)c12)OC(C)(C)CC3	.	-4%	-11%	.	-21%	1%	.	.
30	CCOC(=O)N1CCc2c(sc(NCc3ccc(N(C)C)cc3)c2C(=O)Nc2ccc(OC)cc2)C1	.	.	.	?	-4%	.	18%	0.1%
31	O=C(Nn1c(SCc2cccc([N+](=O)[O-])c2)nc2ccccc2c1=O)c1ccccc1	?	-27%	-6%	?	51%[activator]	14µM*	-74%	-5.1%
32	Cc1ccc(C(=O)N(Cc2nc3ccccc3c(=O)[nH]2)C2CCCC2)cc1	?	0%	9%	?	?	-4%	.	.
33	CC(C)Cc1nnc(NC(=O)CN2C(=O)c3ccccc3C2=O)s1	?	0%	-6%	13%	-2%	2%	.	.
34	O=C1N(c2ccc(Cl)cc2)C(c2ccc(Cl)cc2)N2CCCN12 (stereo not given)	?	5%	-21%	-5%	-22%	-8%	1%	-4.5%
35	O=C(Nc1ccc(F)cc1)C1CCN(C(=O)NCc2ccccc2)CC1	-3%[46.1 µM]	0%	2%	?	1%	1%	.	.
36	CCN1CCN(Cc2ccc(NC(=O)c3ccc(C)c(NC(=O)c4ccno4)c3)cc2C(F)(F)F)CC1	.	-3%	-13%&-8%	.	-25%&0%	0%	.	.
37	COc1cccc2c1C(=O)c1c(O)c3c(c(O)c1C2=O)CC(O)(C(C)=NNC(=O)c1ccc(Cl)c(Cl)c1)CC3OC1CC(N)C(O)C(C)O1 (stereo not given)	0.45µM*	.	-9%	0.4µM*	-28%	.	.	.
38	O=C(c1ccc(N2CCCC2=O)cc1)N1CCOCC1	10%	-1%	-5%	4%	10%	4%	-4%	4.6%
39	CCc1ccc(C(=O)NN(C(=O)c2ccc(CC)cc2)C(C)(C)C)cc1	?	-36%	14%	?	-11%	-31%	11%	-6.5%
40	Cc1ccc(C(c2sc3nc(-c4ccco4)nn3c2O)N2CCN(c3ccc(F)cc3)CC2)cc1 (stereo not given)	.	.	.	9%[46.1 µM]	21%	.	30%	-5.7%
41	Cc1ccc(NC(=O)CNC(=O)c2cccs2)nc1	-11%	2%	-2%	32%[46.1 µM]	33%[activator]	.	.	.
42	O=C(O)CN1C(=O)C(=O)N(Cc2cccc(F)c2)C1=O	?	-1%	9%	-8%[46.1 µM]	40%[activator]	5%	.	.
43	CCCN1Cc2cccc(C(=O)Nc3ccc(C(C)=O)cc3)c2C1=O	6%[46.1 µM]	.	.	26%[46.1 µM]	-2%	.	-3%	-0.8%
44	O=c1ccn(Cc2ccccc2Cl)cc1	18%	-1%	-3%	29%	12%	4%	-1%	-0.2%
45	COc1ccccc1CNC(=O)C(=O)NCC1OCCN1S(=O)(=O)c1ccc2c(c1)OCCO2 (stereo not given)	-1%	-5%	7%	-1%	-21%	-23%	-14%	0.7%
46	C(=C\c1nnc(-c2cccs2)o1)/c1ccccc1	-30%	-10%	8%	?	.	-58%	-14%	-17%
47	COCc1c(C(=O)N/N=C(/C)c2ccc(OCc3ccccc3)cc2)nnn1-c1nonc1N	?	-8%	13%	-24%[46.1 µM]	20%	-14%	.	.
48	CN(CC(=O)NCc1ccccn1)S(=O)(=O)c1ccccc1	3%	10%	12%	5%	.	1%	5%	4.6%
49	COCCN(C(=O)CSc1nnc(-c2cccc(C)c2)n1C)c1c(N)n(Cc2ccccc2)c(=O)[nH]c1=O	16%[46.1 µM]	-5%	-7%	0%	17%	.	.	.
50	CC(C)(C)n1nnnc1C(c1cccc(C#N)c1)N1CCCCCC1 (stereo not given)	-1%	2%	-11%	0%	11%	-1%	-2%	-0.9%
51	CC[C@H](C)C(C(=O)N1CCN(C(=O)OC(C)(C)C)CC1)n1cc(C(CO)NC(=O)OC(C)(C)C)nn1 (stereo not given in full)	.	0%	7%	.	-16%	0%	.	.
52	Cc1ccc(-c2ccccc2)n1-c1cccc(C(=O)O)c1	.	-4%	?	.	4%	7%	.	.
53	CC(C)NC(=O)c1ccc(Sc2ccccc2)c([N+](=O)[O-])c1	?	2%	15%	-9%	?	21%	-19%	7.3%
54	CCOP(=O)(OCC)C(O)c1ccc2c(c1)OCO2 (stereo not given)	.	-1%	0%	.	-6%	-3%	.	.
55	O=c1cc(CO)oc(CN2CCN(CCO)CC2)c1O	13%	10%	6%	2%	23%	?	-5%	2.5%
56	COc1ccc(OC)c(C(c2nnnn2CC2CCCO2)N2CCN(C)CC2)c1 (stereo not given)	6%	3%	0%	-8%	-19%	-7%	-2%	3.6%
57	CC(C)CNC(=O)CC(=O)N/N=C/c1cccs1	7%	17%	22%	3%	-6%	11%	-4%	-1.9%
58	COc1ccc(C(=O)N/C(=C\c2cn(S(=O)(=O)N(C)C)c3ccccc23)C(=O)N2CCN(C)CC2)cc1	.	0%	-8%	.	-13%	-12%	.	.
59	COc1ccc(OCC(=O)NNC(=O)c2cccc(S(=O)(=O)N(C)C)c2)cc1	1%	-6%	-7%	9%	-8%	-4%	-2%	-2.2%
60	CC(C)(C)c1ccc(/C=N/NC(=O)c2ccccn2)cc1	3.2µM*	0%	-20%	?	-74%	-3%	.	.
61	Cc1cnc(NC(=O)COc2cccc3c2OC(C)(C)C3)s1	?	7%	-5%	0.71µM*	-11%	-4%	-1%	4.8%
